Bioassay records from PubChem.
HIV TAR-Tat = HIV-1 TAR-Tat binding disruption; actives 0.6% (n = 100,000); AID 1259389; z-score (test concentration not listed); HIV-1 TAR RNA, Tat peptide displacement FRET; active compounds read high;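 also: score is relative to mean and SD of negative controls; some compounds called inactive have numbers as strong as hits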
CDC25B-CDK2 inh = human CDC25B-CDK2/CyclinA binding inhibition; P30305+P24941; HTRF CDC25B-CDK2/CyclinA binding, anti-His/anti-Flag; active compounds read high; z-score (no concentration beside the values); actives 0.72% (n = 94,000);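 also: score is relative to mean and SD of negative controls; strong numbers were not always called active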
Starred values were filed as active, the others as inactive.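 The calls were made as follows: active = z-score from 3 up in half or more of its runs; inactive = the rest.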

`COC(=O)CSc1nnnn1-c1ccc(C(=O)O)cc1` gave HIV TAR-Tat -0.09 and CDC25B-CDK2 inh -0.41.
For Cn1cc(Cl)c(/C=C(\C#N)S(=O)(=O)c2ccccn2)n1 the results were CDC25B-CDK2 inh -1.79.
Screening Clc1ccccc1CN1C2=NCCN2c2ccccc21 returned CDC25B-CDK2 inh -0.33.
Screening CCC1C(=O)N=C(SCC(=O)Nc2nc3ccccc3s2)NC1=O (centres undefined) returned HIV TAR-Tat 0.13 and CDC25B-CDK2 inh -3.7.
For Cn1cccc1Cc1nnc(SCC(=O)N2CCCCC2)n1-c1ccc(Cl)cc1 the results were HIV TAR-Tat 1.12 and CDC25B-CDK2 inh -1.04.
Screening O=C(O)c1ccc(N2C(=O)c3[nH]nc(-c4ccccc4)c3C2c2ccccc2F)cc1 (centres undefined) returned CDC25B-CDK2 inh -1.27.
`Cc1ccc(-c2cc3nc(C)cc(C(F)(F)F)n3n2)cc1` gave HIV TAR-Tat 0.97 and CDC25B-CDK2 inh 1.55.
Screening CC1=CC(C)(C)N(C(=O)c2ccco2)c2ccc(OC(=O)c3ccco3)cc21 returned HIV TAR-Tat 0.66 and CDC25B-CDK2 inh 0.12.
Screening COc1ccc2c(c1)CC(NC(=O)N1CCC(C)CC1)CO2 (centres undefined) returned HIV TAR-Tat -0.02.
Cc1occc1-c1nnc(SCC(=O)c2ccc(Br)cc2)o1 was read as HIV TAR-Tat -0.7 and CDC25B-CDK2 inh -0.25.
For Cc1nn(C(C)C(=O)NCc2ccccn2)c(=O)c2cc3sccc3n12 (centres undefined) the results were HIV TAR-Tat -0.83 and CDC25B-CDK2 inh -1.54.
Screening Cn1c2ccccc2c2cnn(CC(=O)NCc3ccccn3)c(=O)c21 returned HIV TAR-Tat 0.6 and CDC25B-CDK2 inh -0.97.
`Cc1cc(C(=O)Nc2ccc(Oc3c(Cl)cccc3Cl)nc2)n(C)n1` gave CDC25B-CDK2 inh -0.21.
Screening CC(C)c1ccc(-c2c(NCCCc3ccccc3)c(=O)c2=O)cc1 returned HIV TAR-Tat 0.73.
Cc1cccc(Oc2cc(C)nc3ccc(C)cc23)c1 was read as HIV TAR-Tat -0.75 and CDC25B-CDK2 inh -1.37.
Screening CCN1CCN(c2ncc3c(n2)CCN(Cc2ccc(OC(C)C)cc2)C3)CC1 returned HIV TAR-Tat 0.99.
`COC(=O)c1c(-c2cccs2)csc1NC(=O)c1cccnc1` gave HIV TAR-Tat -0.82 and CDC25B-CDK2 inh 0.09.
`O=S(=O)(c1cnc[nH]1)N1CCCC1c1ccco1` (centres undefined) gave HIV TAR-Tat 1.27 and CDC25B-CDK2 inh -2.77.
For Cc1onc(C(=O)Nc2c(C)n(C)n(-c3ccccc3)c2=O)c1[N+](=O)[O-] the results were HIV TAR-Tat -0.39 and CDC25B-CDK2 inh -0.02.
Screening Cc1ccccc1N1CC(O)=C(c2nc3ccccc3n2C)C1=N returned HIV TAR-Tat 0.01 and CDC25B-CDK2 inh -1.18.
CCc1nnc(NS(=O)(=O)c2ccc(NC(=O)c3ccc(Cl)cc3Cl)cc2)s1 was read as CDC25B-CDK2 inh -0.71.
Screening COc1ccc2c(c1)C=C(C(=O)NC(C)C)C=CO2 returned HIV TAR-Tat 0.12 and CDC25B-CDK2 inh 0.65.
For CC(C)NC(=O)c1cnn2c3c(cnc12)CCCC3 the results were HIV TAR-Tat 0.49.
Screening Cc1ccc(S(=O)(=O)Nc2cccc(-c3cn4cccc(C)c4n3)c2)cc1 returned CDC25B-CDK2 inh -0.51.
Screening CC(C)(C)c1ccc(C2/C(=C(\O)c3ccc(F)cc3)C(=O)C(=O)N2c2nncs2)cc1 (centres undefined) returned CDC25B-CDK2 inh -1.35.
O=C1Nc2ccc(S(=O)(=O)NCc3ccccc3)cc2C1=O was read as HIV TAR-Tat 6.2*.
For COc1ccccc1NC(=O)N1CCN(c2nc3cc(F)ccc3n3cccc23)CC1 the results were HIV TAR-Tat 0.78 and CDC25B-CDK2 inh -1.24.
Screening CC(Sc1nc2ccccc2n1C)C(=O)NC(c1ccccc1)c1ccccc1 (centres undefined) returned CDC25B-CDK2 inh -0.29.
CCOC(=O)C1=C(N)Oc2c(oc(CO)cc2=O)C1c1ccc(F)c(F)c1 (centres undefined) was read as CDC25B-CDK2 inh -0.2.
Screening O=C(Cn1nc2c3scc(-c4ccc(F)cc4)c3ncn2c1=O)Nc1ccccc1Cl returned HIV TAR-Tat 0.37.
Screening Cc1ccc(-c2cn3cccnc3n2)cc1NC(=O)CCC1CCCC1 returned CDC25B-CDK2 inh -0.59.
`CC(C)Nc1nc(NCCO)nc2c1cnn2C` gave HIV TAR-Tat 0.92.
For Cc1ccc(OC(=O)c2nc(S(C)(=O)=O)ncc2Cl)c(C)c1 the results were HIV TAR-Tat -1.21 and CDC25B-CDK2 inh -1.38.
`CSC1=NCCN1S(=O)(=O)c1ccc(C)c(C)c1` gave HIV TAR-Tat 1.31 and CDC25B-CDK2 inh -0.64.
`CC(C)(C)C(=O)Nc1ccc2c(c1)CCC(=O)N2` gave HIV TAR-Tat 1.15.
`CC(=O)c1cccc(NC2=NS(=O)(=O)c3ccccc32)c1` gave CDC25B-CDK2 inh 1.66.
C=CCN(CC=C)S(=O)(=O)c1ccc(N2C(=O)c3ccccc3C2=O)cc1 was read as CDC25B-CDK2 inh 2.6.
NC(=O)c1ccc(-n2c(CCC(=O)O)ccc2-c2cccs2)cc1 was read as HIV TAR-Tat -1.12 and CDC25B-CDK2 inh 0.09.
`Cc1c(C(=O)N2CCc3ccccc3C2)sc2nc3n(c(=O)c12)CCCC3` gave HIV TAR-Tat 2.47.
CC(C)C(=O)Nc1ccccc1SCc1cc(=O)n2c(ncn2C(C)C)n1 was read as HIV TAR-Tat -0.54 and CDC25B-CDK2 inh -2.16.

Pulled one by one from the list above (three):
Screening O=C(Cn1nc2c3scc(-c4ccc(F)cc4)c3ncn2c1=O)Nc1ccccc1Cl returned HIV TAR-Tat 0.37.
For COc1ccccc1NC(=O)N1CCN(c2nc3cc(F)ccc3n3cccc23)CC1 the results were HIV TAR-Tat 0.78 and CDC25B-CDK2 inh -1.24.
C=CCN(CC=C)S(=O)(=O)c1ccc(N2C(=O)c3ccccc3C2=O)cc1 was read as CDC25B-CDK2 inh 2.6.

(more compounds)
`CCOC(=O)CSc1ccc2nnc(-c3ccc(Cl)cc3)n2n1` gave CDC25B-CDK2 inh -0.94.
`CC(=O)N1c2ccc(S(=O)(=O)N3CCCC3)cc2CC1C(=O)NCCC1=CCCCC1` (centres undefined) gave HIV TAR-Tat 1.02.
CN(Cc1ccccc1)c1c(-c2ccc(Cl)cc2)c(=O)c1=O was read as HIV TAR-Tat -0.47.
NC(=O)c1ccc(-c2ccccn2)s1 was read as CDC25B-CDK2 inh -0.86.
Screening Cc1ccc(C)c(N(C)C(=O)Cc2noc3ccc(C)cc23)c1 returned HIV TAR-Tat 1.53 and CDC25B-CDK2 inh -1.17.
`COc1cc(OC)c(NC(=O)NCCCN2CCC(N3CCCCC3)CC2)cc1Cl` gave HIV TAR-Tat -0.96 and CDC25B-CDK2 inh -0.33.
For CNc1nc(Nc2cccc(OC)c2)c2cnn(C)c2n1 the results were HIV TAR-Tat -0.28.
COc1ccc(N2CCN(C(c3cccs3)C(C)NS(=O)(=O)c3ccc(F)cc3)CC2)cc1 (centres undefined) was read as CDC25B-CDK2 inh -0.96.
Cn1cccc1Cc1nnc(SCC(=O)NCC2CCCO2)n1Cc1ccccc1 (centres undefined) was read as HIV TAR-Tat -1.22 and CDC25B-CDK2 inh -1.16.
Screening CC(C)=C1C2C=CC1c1ccccc12 returned CDC25B-CDK2 inh -1.4.
Screening Cc1nn2c(=O)c(NC(=O)c3ccc(Cl)cc3)cnc2s1 returned HIV TAR-Tat 0.21 and CDC25B-CDK2 inh -1.24.
For Cc1ccc2onc(CNC(=O)Nc3nccs3)c2c1 the results were HIV TAR-Tat 1.07.
Screening CSc1nc2cc(-c3ccc(Cl)cc3)nn2c(N)c1C#N returned CDC25B-CDK2 inh 1.41.
For CCOC(=O)C1CCN(c2nn3nnnc3c3ccccc23)CC1 the results were HIV TAR-Tat 0.72.
`c1cncc(-c2nc3ccccc3o2)c1` gave HIV TAR-Tat 1.34 and CDC25B-CDK2 inh 0.04.
For O=C(Nc1ccc(S(=O)(=O)N2CCN(c3ccccc3)CC2)cc1)N1CCCC1 the results were HIV TAR-Tat 1.02.
c1cncc(CSc2nc3ccccc3[nH]2)c1 was read as HIV TAR-Tat -0.37 and CDC25B-CDK2 inh -1.08.
CCn1cc2c(n1)-c1c(oc(C(=O)N3CCOCC3)c1C)CC2 was read as HIV TAR-Tat 0.15.
`COc1ccc(OC)c(S(=O)(=O)Nc2cc(N3CCCS3(=O)=O)ccc2C)c1` gave HIV TAR-Tat 0.29.
`Cc1ccc(N=Nc2c(C)[nH]n(-c3ccccc3)c2=O)c(C)c1` gave CDC25B-CDK2 inh -2.14.
For Cc1cccc(OC(=O)CSc2nnc(-c3ccc4c(c3)OCO4)o2)c1C the results were HIV TAR-Tat 0.39 and CDC25B-CDK2 inh -1.44.
Screening O=C(Cn1ncn2c(cc3cc(F)ccc32)c1=O)NCc1ccc2c(c1)OCO2 returned HIV TAR-Tat 0.15 and CDC25B-CDK2 inh -2.22.
Screening CC(C)Cc1nc2ccccc2n1Cc1ccccc1 returned HIV TAR-Tat 1.11 and CDC25B-CDK2 inh -0.12.
For Cc1ccc(OC(=O)c2cc(-c3ccc4c(c3)OCCO4)on2)c(C)c1 the results were HIV TAR-Tat -1.78 and CDC25B-CDK2 inh -0.21.
CSc1nnc(NC(=O)c2cc(-c3ccc4c(c3)OCCO4)on2)s1 was read as HIV TAR-Tat 1.36 and CDC25B-CDK2 inh -0.32.
Cn1c(=O)c2c(nc(SCC(=O)NC(C)(C)C)n2C)n(C)c1=O was read as HIV TAR-Tat 3.61 and CDC25B-CDK2 inh 0.52.
Screening CC(=O)c1cnn(-c2ccccc2)c1C returned CDC25B-CDK2 inh -0.5.
For COc1ccc(-c2c3c(=O)n(C)c(=O)n(C)c3c3n2-c2ccccc2NC3c2ccc(O)c(O)c2)cc1 (centres undefined) the results were HIV TAR-Tat 1.55 and CDC25B-CDK2 inh -0.44.
`CCC(C)NC(=O)Cn1cc2c(n1)-c1c(oc(C(=O)N3CCOCC3)c1C)CC2` (centres undefined) gave HIV TAR-Tat 2.56.
For CCOC(=O)c1cc(-c2ccc(S(=O)(=O)NCCN3CCC(C)CC3)s2)on1 the results were HIV TAR-Tat -3.25.
`CN1CCN(CC(=O)Nc2cccc3ccccc23)CC1` gave CDC25B-CDK2 inh 0.98.
Screening Cc1ccc(-n2c(N)c(C(N)=O)sc2=S)c(C)c1 returned HIV TAR-Tat 0.21.
CN(C(=O)CCS(=O)(=O)c1ccc2c(c1)oc(=O)n2C)C1CCCCC1 was read as HIV TAR-Tat -0.12.
CCc1cc2c(=O)c(-c3nc4ccccc4n3C)coc2c(CN(CC)CC)c1O was read as HIV TAR-Tat 0.41 and CDC25B-CDK2 inh -0.29.
`O=C(CCCn1ncn2c(cc3occc32)c1=O)N1CCc2ccccc2C1` gave HIV TAR-Tat 2.44 and CDC25B-CDK2 inh 0.31.
Screening Cc1cc(S(=O)(=O)N2CCCC(n3nc4ccccc4n3)C2)ccc1-n1cnnn1 (centres undefined) returned HIV TAR-Tat -1.22 and CDC25B-CDK2 inh -1.9.
COc1cscc1C(=O)NC1(O)C(=O)c2ccccc2C1=O was read as CDC25B-CDK2 inh 0.64.
`O=C(ON=C1CCC2(CC1)OCCO2)c1cccc([N+](=O)[O-])c1` gave CDC25B-CDK2 inh -1.81.
For CC(=O)Nc1ccc2nc3c(=O)[nH]c(=O)[nH]c3nc2c1 the results were HIV TAR-Tat 1.84 and CDC25B-CDK2 inh 8.04*.
`COc1cn(CC(=O)NCc2ccco2)c(CSc2nc(C)cc(C)n2)cc1=O` gave HIV TAR-Tat 0.9.
`Cc1ccc2oc(C(=O)N(Cc3ccc(N(C)C)cc3)C3CCS(=O)(=O)C3)cc(=O)c2c1` (centres undefined) gave HIV TAR-Tat 2.15 and CDC25B-CDK2 inh -1.56.
`CCOC(=O)C(=O)C1(C(=O)OCC)Oc2cc(OC)cc(OC)c2C(=O)C1c1ccccc1` (centres undefined) gave HIV TAR-Tat 1.28.
`CC(=O)c1ccc2c3c(cccc13)C(=O)N(c1ccccc1)C2=O` gave CDC25B-CDK2 inh -0.68.
`Cc1ccc(CNc2c(C)c(C)nc3ncnn23)cc1` gave HIV TAR-Tat 1.29.
For CC1=C(C(=O)OCc2ccccc2)C(c2cccnc2)C2=C(CC(c3ccccc3)CC2=O)N1 (centres undefined) the results were HIV TAR-Tat 0.37 and CDC25B-CDK2 inh -1.33.
Screening COc1ccc(OC)c2[nH]c(=O)c(CCNC(=O)C3CCCC3)cc12 returned CDC25B-CDK2 inh -0.74.
`CCOC(=O)c1cccnc1SCC(=O)O` gave HIV TAR-Tat 1.42.
Screening COC(=O)CSc1ncn(-c2nc(C)cc(N3CCCC3)n2)n1 returned HIV TAR-Tat 0.55 and CDC25B-CDK2 inh 0.72.
`COC(=O)c1cc(S(=O)(=O)NCc2csc(-c3cccs3)n2)oc1C` gave CDC25B-CDK2 inh -1.22.
Screening CCOc1ccc(-n2c(C)c(C(C)=O)c3cc(OC)ccc32)cc1 returned CDC25B-CDK2 inh -0.67.
For CC(=O)OCc1ccc(COC(C)=O)c(OC(C)=O)c1OC(C)=O the results were CDC25B-CDK2 inh -0.03.

Part of the list above in order of molar mass, smallest number first:
Screening CC(C)=C1C2C=CC1c1ccccc12 returned CDC25B-CDK2 inh -1.4.
`CC(C)(C)C(=O)Nc1ccc2c(c1)CCC(=O)N2` gave HIV TAR-Tat 1.15.
For Cc1onc(C(=O)Nc2c(C)n(C)n(-c3ccccc3)c2=O)c1[N+](=O)[O-] the results were HIV TAR-Tat -0.39 and CDC25B-CDK2 inh -0.02.
CCOC(=O)C1=C(N)Oc2c(oc(CO)cc2=O)C1c1ccc(F)c(F)c1 (centres undefined) was read as CDC25B-CDK2 inh -0.2.
Screening CC(C)(C)c1ccc(C2/C(=C(\O)c3ccc(F)cc3)C(=O)C(=O)N2c2nncs2)cc1 (centres undefined) returned CDC25B-CDK2 inh -1.35.
